Assay outcomes from PubChem.
NS1 function inh = blocks influenza NS1 protein function. S. cerevisiae slowed by influenza A NS1, growth recovery by OD600. Potency, µM (doses to about 46.1 µM), inactives show at the highest dose activity, positive = more growth. actives 0.4% (n = 270,000). AID 2326; active means well fitted rising curve with a large enough effect; inconclusive means small, poorly fitted or top-dose-only effect; inactive means no such curve, though single readings can be large or run the other way; note: nearly all actives have a fitted effect of over 50% in size
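OD600 was taken as the measure of yeast growth restored by compound in an NS1-expressing S. cerevisiae strain. Cells had been washed out of glucose medium and diluted 1:100 into galactose -URA medium, pH 6.0.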
2A StopGo = FMDV 2A StopGo reporter, luciferase signal; human cells with a luciferase reporter of 2A StopGo recoding; control for the full effect not named in the record; Potency, µM (top dose mostly 57.9 µM), for inactives: top-dose signal change, negative = less light; actives 1.2% (n = 410,000); AID 1159524; active = well fitted falling curve with a large enough effect; inconclusive = small, poorly fitted or top-dose-only effect; inactive = no such curve, though single readings can be large or run the other way; tested in HEK293T cells; note: % is set by controls: 0 for no effect and ±100 for the full control effect; nearly all actives have a fitted effect of over 45% in size; luciferase light after 4 h
RE007 growth inh = less growth of the S. pombe RE007 Vpr strain; Potency, µM (highest dose often 92.2 µM), for inactives: top-dose activity change, negative = less growth; AID 651644; S. pombe RE007 Vpr strain, BacTiter-Glo ATP luminescence, 24 h; control for the full effect not named in the record; actives 0.21% (n = 360,000); active = well fitted falling curve with a large enough effect; inconclusive = small, poorly fitted or top-dose-only effect; inactive = no such curve, though single readings can be large or run the other way;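 note: % is set by controls: 0 for no effect and ±100 for the full control effect; nearly all actives have a fitted effect of over 50% in size; the assay follows cell death caused by Vpr and the record does not say whether a fall means rescue or toxicity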
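Fission yeast RE007 carrying one integrated HIV-1 vpr copy, seeded at OD 0.01 in PMG+AL medium with 23 nL pinned compound. Grown 24 h at 30 degrees; viability read by BacTiter-Glo luminescence after 5 min.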
SARS PLpro yeast = inhibitors of SARS-CoV papain-like protease in yeast; S. cerevisiae expressing SARS-CoV PLpro, growth rescue; control for the full effect not named in the record; Potency, µM (highest dose often 32.9 µM), inactives show top-dose activity, positive = growth rescue; actives 0.19% (n = 330,000); active means well fitted rising curve with a large enough effect; inconclusive means small, poorly fitted or top-dose-only effect; inactive means no such curve, though single readings can be large or run the other way; note: 0% is about no effect; nearly all actives have a fitted effect of over 55% in size; growth read by luminescence after 48 h
Cruzain inh Det = cruzain (T. cruzi) inhibition with detergent; P25779; purified cruzain, Z-FR-AMC fluorescence, 0.01% Triton; Potency, µM, for inactives: max response, negative = inhibition, actives largely listed as inhibitors; actives 0.43% (n = 200,000); AID 1478;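 note: plate controls were neutral wells for no effect and buffer without enzyme for full effect; nearly all actives have a fitted effect of over 40% in size; top concentration of the series not given in the record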
Target sequence (P25779 123-467 limits assumed): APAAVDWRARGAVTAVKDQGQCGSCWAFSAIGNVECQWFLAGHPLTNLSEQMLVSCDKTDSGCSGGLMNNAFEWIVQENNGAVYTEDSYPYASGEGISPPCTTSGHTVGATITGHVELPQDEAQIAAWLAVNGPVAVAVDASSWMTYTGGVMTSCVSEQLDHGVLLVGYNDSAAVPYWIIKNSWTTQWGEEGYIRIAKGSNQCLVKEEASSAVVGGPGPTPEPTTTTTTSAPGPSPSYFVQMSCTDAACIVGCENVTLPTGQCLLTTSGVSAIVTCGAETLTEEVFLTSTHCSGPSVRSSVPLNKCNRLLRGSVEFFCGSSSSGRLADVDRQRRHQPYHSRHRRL
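Cruzain (1.5 nM) preincubated 15 min at RT with compound in 100 mM sodium acetate pH 5.5, 5 mM DTT, 0.01% Triton X-100. Reaction started with 2 uM Z-FR-AMC; AMC fluorescence (ex 360/em 450 nm) change over 60 s gave rate.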
LASV entry inh = Lassa virus entry inhibition | Lassa virus pseudotype entry inhibition, cell reporter; control for the full effect not named in the record | actives 1.2% (n = 300,000) | Potency, µM (doses to about 37.9 µM), for the others: top-dose activity change, negative = inhibition, usual class: inhibitors; active means well fitted inhibition curve with a large enough effect; inconclusive means small, poorly fitted or top-dose-only effect, or effect the other way; inactive means flat fitted curve, though single readings scatter; tested in HEK293 cells; note: % is set by controls: 0 for no effect and ±100 for the full control effect; nearly all actives have a fitted effect of over 50% in size; luciferase read-out
MARV entry inh = inhibitors of Marburg virus binding or cell entry. Marburg virus pseudotyped entry inhibition, cell reporter; control for the full effect not named in the record; about a third of the inactives were read at about 46 µM. actives 1.8% (n = 300,000). Potency, µM (series often up to 37.8 µM), for inactives: at the highest dose activity change, negative = inhibition, actives largely listed as inhibitors; active = well fitted inhibition curve with a large enough effect; inconclusive = small, poorly fitted or top-dose-only effect, or effect the other way; inactive = flat fitted curve, though single readings scatter; tested in HEK293 cells; about a fifth of its hits are not listed in these tables; note: % is set by controls: 0 for no effect and ±100 for the full control effect; luciferase read-out
Cruzain inh noDet = cruzain (T. cruzi) inhibition without detergent. actives 2.3% (n = 200,000). purified cruzain, Z-FR-AMC fluorescence, no detergent. AID 1476. Potency, µM, for the others: max response, negative = inhibition, actives largely listed as inhibitors. P25779;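 note: plate controls were enzyme without inhibitor for no effect and buffer without enzyme for full effect; nearly all actives have a fitted effect of over 40% in size; top concentration of the series not given in the record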
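Detergent-free condition (0.00005% Triton X-100) in acetate buffer pH 5.5 with DTT. 1.5 nM enzyme and compound were pre-mixed 15 min, then 2 uM Z-FR-AMC substrate added; reaction progress from fluorescence change between first and third reads (60 s).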
Starred values were filed as active, the others as inactive; ? = inconclusive; . = not tested or not shown; & = joins results of further samples; [ ] = dose if it differs, or a comment. Unless noted, calls come from the whole dose curve; as a rule, active = well fitted curve in the direction sought with a large enough effect; inconclusive = small, poorly fitted or top-dose-only effect, or another doubt; inactive = no such curve, though single readings can be large; an effect the other way counts as inactive or inconclusive. Potency is the fitted concentration of half-maximal effect. Compounds were not picked by outcome. About 4.7% of those tested had a hit in this group.

SMILES | NS1 function inh | 2A StopGo | RE007 growth inh | SARS PLpro yeast | Cruzain inh Det | LASV entry inh | MARV entry inh | Cruzain inh noDet
CCOC(=O)c1ccc(COC(=O)c2nonc2N)cc1 | -5% | 24% | 0% | 3% | -0.5% | 10% | 15%[46.1 µM] | -3%
N#Cc1nc(Cc2ccccc2)oc1N1CCN(c2ccccc2)CC1 | ? | . | -9% | -14% | -0.4% | ? | ? | -17%
Cc1cccc(-c2nc(CSc3nncn4c3cc3oc(C)cc34)c(C)o2)c1 | . | 6% | . | . | -0.9% | 17%[46.1 µM] | . | -1%
COc1ccc(C(=O)CN2C(=O)NC3(CCCc4ccccc43)C2=O)cc1 (stereo unspecified) | . | 17% | -10% | . | . | 0% | 8% | .
Cc1nc2cc(NC(=O)N3CCCC3)ccc2n1C | -1% | 41%[activator] | -30% | -1% | . | 25% | 2% | .
COc1ccccc1C(=O)Nc1nnc(CCc2ccccc2)s1 | -49% | 0% | -4% | -14% | . | ? | ? | .
CC(C)NC(C(=O)Nc1cc(Cl)cc(Cl)c1)c1ccccc1 (stereo unspecified) | -8% | -23% | -12% | -3% | 1.2% | -12% | -23% | 3%
CCc1nnc(NC(=O)CSc2nnc(-c3ccccc3NC(=O)c3ccccc3)o2)s1 | -5% | . | -14% | 4% | -1.6% | -2% | -1%&2% | 4%
CCCCCCN=CC1=C(O)CC(C)(C)CC1=O | -8% | 14% | 10% | ? | 1.6% | ? | -5% | -6%
CNCCCC1Sc2ccccc2Oc2ccccc21 (stereo unspecified) | -2% | ? | -7% | 2% | -0.1% | ? | ? | -9%
O=C(CCC(=O)NNc1nc2ccccc2c2nc(-c3ccccc3)nn12)NCCCN1CCOCC1 | . | 1% | 11% | 1% | . | 22% | -18% | .
CCOc1ccc(-c2nc(C)c(C(C)=O)n2O)cc1 | -55% | 20% | ? | -18% | -7.9% | -14% | 18% | 2%
O=C(Nc1ccc(Cl)cc1)N1CCN(C(=O)C2CCCO2)CC1 (stereo unspecified) | -4% | 11% | 4% | 1% | . | 0%[46.1 µM] | 13%[46.1 µM] | .
COc1ccc([N+](=O)[O-])cc1N(CC(=O)NCc1ccco1)S(C)(=O)=O | -2% | 9% | 3% | 0% | . | -24%[46.1 µM] | -22%[46.1 µM] | .
O=C(N/N=C/c1ccc(Cl)cc1Cl)c1cccc(N2CCCC2=O)c1 | 8% | -9% | 0% | 1% | . | 3% | ? | .
CCOc1ccc(C2C(C(=O)Nc3ccccc3)=C(C)Nc3nc(-c4ccccc4Cl)nn32)cc1OC (stereo unspecified) | . | -17% | . | . | -6.8% | ? | -18%[46.1 µM] | ?
C=CCNC(=S)N1CCC(C(=O)c2ccc3c(c2)OCCO3)CC1 | -2% | 22% | 5% | -2% | . | 8%[46.1 µM] | 0%[46.1 µM] | .
Nc1nc(Nc2ccccc2)nc(C(F)(F)F)n1 | -38% | 5% | ? | 0% | . | 14%[46.1 µM] | 25%[46.1 µM] | .
Cc1cccc(C)c1NC(=O)CNC(=O)c1ccc2c(c1)OCCO2 | . | -3% | 5% | -6% | . | 5% | ? | .
COc1ccc(C2=NN(CN3C(=O)C(=O)c4ccccc43)C(c3ccc(C)cc3)C2)cc1 (stereo unspecified) | 5% | 27% | ? | -13% | -2.3% | -9% | -9% | -3%
CCCCNC(=O)CSc1nc2ccccc2nc1Cc1ccc(C)cc1 | . | -9% | . | . | 1.8% | 20%[46.1 µM] | . | -13%
COc1ccc(CN(C)Cc2c(O)ccc3ccccc23)cc1 | -4% | -10% | -14% | -1% | . | 15%[46.1 µM] | 2%[46.1 µM] | .
O=C(CNC(=O)c1ccccc1)OCc1cccc([N+](=O)[O-])c1 | 20% | 3% | -14% | -1% | -5.5% | 13% | ? | 5%
O=C(CCc1ccccc1)OCCN1CCOCC1 | 6% | -9% | -12% | 7% | 6.5% | -14% | 1% | 0%
CC(C)(C)NC(=O)NC(=O)CN1CCN(S(=O)(=O)c2ccccc2)CC1 | ? | -13% | 11% | -4% | . | 4% | 0%[46.1 µM] | .

(further entries)
SMILES | NS1 function inh | 2A StopGo | RE007 growth inh | SARS PLpro yeast | Cruzain inh Det | LASV entry inh | MARV entry inh | Cruzain inh noDet
O=C1CCC/C(=N/NC(=O)c2ccc(NS(=O)(=O)c3cccs3)cc2)C1 | . | -14% | -1% | 0% | . | 5% | 7%[46.1 µM] | .
Cc1ccc(S(=O)(=O)CC(=O)Nc2ccc(Cl)cn2)cc1 | . | -4% | 33% | -1% | . | ? | 9%[46.1 µM] | .
CCOc1ccc(C(=O)/C=C/c2cn(CN3CCN(C)CC3)c3ccccc23)cc1 | -30% | 69%[activator] | 6% | -6% | -11% | -5% | -25%&1% | 7%
C[C@@H](NC(=O)c1nc[nH]c1C(=O)NCC(=O)OCc1ccccc1)c1ccccc1 | 6% | -26% | 5% | 8% | . | . | . | .
CCOc1cc(NC(=O)c2ccccn2)c(OCC)cc1NC(=O)CC(C)C | 4% | 0% | 6% | -2% | -2.6% | 5% | -18% | 9%
O=C(O)CCC(=O)Nc1sc2c(c1C(=O)Nc1ccccc1)CCCCC2 | . | -14%&-19% | 1% | 2% | -18% | ? | ? | -10%
O=C(COC(=O)CC1CCCC1)Nc1ccc(Cl)cn1 | . | -11% | -2% | -2% | . | 10% | -2% | .
Cc1ccc(CCNc2ccccc2C)cn1 | 3% | 7% | -11% | -13% | -1.1% | ? | -5% | -16%
COC(=O)c1ccc(NC(=O)CSC2=Nc3ccccc3C3CC=NN23)cc1 (stereo unspecified) | -63% | 0% | 26% | -1% | -6.2% | 1% | -1% | -15%
Cc1ccc(NC(=O)CN(C)C(=O)COC(=O)C2=COCCO2)cc1 | . | 15% | ? | 3% | . | ? | 23% | .
Cc1c(NC(=O)Cc2ccccc2)cccc1-c1nc2cccnc2s1 | . | -8% | . | . | -2.5% | 7%[46.1 µM] | ? | 2%
CCOC(=O)CSc1nc(N)cc(=O)[nH]1 | 2% | -10% | -13% | -1% | 3.9% | -7% | 0% | 6%
CCOC(=O)c1[nH]c(C(=O)O)c(OC(=O)CC)c1C | 0% | -5% | 5% | 0% | . | 14%[46.1 µM] | 6%[46.1 µM] | .
COc1ccc(CCNC(=O)CSc2nnnn2Cc2ccc3c(c2)OCO3)cc1OC | -8% | -27% | 4% | 2% | 3.9% | -4% | 5% | 5%
Cc1ccc(C(=O)NNc2cc(=O)n(C)c(=O)n2C)cc1C | 12% | -7% | 4% | -8% | 2.3% | -7% | -3% | 16%
CCCn1c(SCC(=O)NCc2ccco2)nnc1-c1ccncc1 | 1% | -1% | -9% | 0% | . | 15% | -14%[46.1 µM] | .
Cc1ccc(-c2noc(CNC(=O)c3ccc(C)c(Cl)c3)n2)cc1 | . | -22% | . | . | -12% | -7%[46.1 µM] | ? | 5%
CC(NCc1ccncc1)C12CC3CC(CC(C3)C1)C2 (stereo unspecified) | 0% | -21% | -1% | 0% | . | -17% | 2%[46.1 µM] | .
O=S1(=O)CCO[C@H]2Cc3ccccc3[C@H]2N1Cc1ccc(Cl)cc1 | -42% | -10% | 0% | -27% | . | . | . | .
COC(CNC(=O)c1ccc2c(=O)n(Cc3ccc4c(c3)OCO4)c(=S)[nH]c2c1)OC | 2% | -20% | 2% | 1% | . | . | . | .
O=C(c1cccc(S(=O)(=O)Nc2ccc(Br)cc2)c1)N1CCCC1 | . | 32%[activator] | -4% | . | . | -4% | -11% | .
CC1(C)CC2CC(C)(CN2c2ncnc3ccc(Br)cc23)C1 (stereo unspecified) | -66% | ? | 21% | -11% | -15% | ? | 6.3µM* | -17%
Cc1ccccc1C(O)c1ccccn1 (stereo unspecified) | 3% | 6% | 10% | -4% | -0.4% | -26%[14.3 µM] | 17% | -2%
CSc1ccccc1OCc1cc(C(=O)NCc2csc(C(C)C)n2)no1 | -4% | -4% | 5% | 1% | . | -8%[46.1 µM] | -26%[46.1 µM] | .
O=C(COC(=O)c1cccnc1Cl)c1ccc(F)cc1 | 4% | 14% | -18% | 0% | . | ? | 2%[46.1 µM] | .

(listing goes on)
SMILES | NS1 function inh | 2A StopGo | RE007 growth inh | SARS PLpro yeast | Cruzain inh Det | LASV entry inh | MARV entry inh | Cruzain inh noDet
Cc1ccc(-c2nc3ncccc3o2)cc1NC(=O)Cc1ccc(Cl)cc1 | 9% | -19% | -15% | -24% | 4.6% | -16% | -7%[46.1 µM] | 2%
CSCCC(NC(=O)COc1ccccc1)C(=O)OC(C)C(=O)Nc1ccccc1C (stereo unspecified) | . | -26% | -4% | 3% | . | 18% | 20% | .
CCOC(=O)C1Oc2ccccc2C(c2ccc(F)cc2)=C1C(=O)OC (stereo unspecified) | . | -21% | 2% | 8% | 0.5% | . | . | 5%
CCOc1ccc(S(=O)(=O)NCC2CCCO2)cc1 (stereo unspecified) | 1% | . | -3% | 2% | 7.2% | -7% | -10% | 0%
O=c1nc2n(CCO)c3ccccc3cc-2c(=O)[nH]1 | . | -21% | 16% | . | . | -1% | 4% | .
CCC(C)NC(=O)CC(NS(=O)(=O)c1ccc(C)cc1)c1ccc(OC)cc1 (stereo unspecified) | 0% | 1% | -23% | 1% | -0.7% | -30% | 11% | 8%
COC(=O)CC/C(C)=N\Nc1ccc([N+](=O)[O-])cc1[N+](=O)[O-] | 0% | -20% | 4% | 6% | -3.4% | 6% | ? | -6%
CC1(C)CC(=O)C2=C(C1)N(Cc1ccco1)C(=O)C2(O)C(F)(F)F (stereo unspecified) | ? | 39%[activator] | 10% | 8% | 4.2% | -5% | -1% | -3%
Cc1noc(Cn2c(=O)c3ccccc3n(CC(=O)Nc3ccc(Cl)cc3)c2=O)n1 | . | 0% | . | . | -5.5% | ? | . | -6%
O=c1ccn(Cc2ccccc2)cc1 | 0% | -20% | 4% | 6% | . | . | . | .
Cc1ccc(NC(=O)CCS(=O)(=O)c2ccc(Br)cc2)nc1 | 2% | -14% | -15% | 16% | -1.4% | 0% | -11% | 4%
Cc1nc2c(oc3ccc(Cl)cc32)c(=O)[nH]1 | -36% | -7% | 2% | -5% | . | . | . | .
